# From PubChem
# Vaccinia Venus = qHTS for Stage-Specific Inhibitors of Vaccinia Orthopoxvirus: Venus Reporter Primary qHTS; Vaccinia virus Venus reporter expression, fluorescence; Potency, µM (series often up to 36.5 µM), for the others: at the top dose activity change, negative = inhibition, most hits filed as inhibitors; hit rate 0.46% among 330,000; AID 720580, 2013; active means well fitted inhibition curve with a large enough effect; inconclusive means small, poorly fitted or top-dose-only effect; inactive means no such curve, though single readings can be large or run the other way; tested in A549 cells; further: nearly all actives have a fitted effect of over 30% in size; inactives centre near -10
# Vaccinia mCherry = qHTS for Stage-Specific Inhibitors of Vaccinia Orthopoxvirus: mCherry Reporter Primary qHTS. Vaccinia virus mCherry reporter infection, fluorescence; about a quarter of the inactives have no number. Potency, µM (top dose mostly 36.5 µM), without a hit: at the top dose activity change, negative = inhibition, actives largely listed as inhibitors. hit rate 0.63% among 310,000. AID 720579, 2013; active = well fitted inhibition curve with a large enough effect; inconclusive = small, poorly fitted or top-dose-only effect; inactive = no such curve, though single readings can be large or run the other way; tested in A549 cells; further: nearly all actives have a fitted effect of over 35% in size; inactives centre near -10
# * = called active by the depositor; i = inactive; ? = inconclusive; nt = no result given; [ ] = another dose, or the depositor's remark. On the % scale 0 is the no-effect control and ±100 the full control effect; potency means the concentration at half of the fitted maximal effect.
[1] O/N=C1\CCCc2ccc3ccccc3c21
[2] CCCC1C(c2ccccc2)C(C#N)(C#N)C2(C#N)CC1(N)NC2=O (centres undefined)
[3] COc1cc2c(cc1NC(C)=O)CCCC2
[4] O=C(Nc1nnc(SCC(=O)N2CCCC2)s1)C1CC(=O)N(c2ccccc2)C1 (centres undefined)
[5] Clc1ccc(NCc2nncn2-c2ccccc2)cc1
[6] CCOc1ccc(-c2nnn(CC(=O)c3ccc4c(c3)OCCO4)n2)cc1
[7] O=C(CCc1nc2ccccc2s1)OCC(=O)c1ccc[nH]1
[8] O=C1/C(=C/c2ccc([N+](=O)[O-])cc2)N2CCC1CC2

screen / no.,1,2,3,4,5,6,7,8
Vaccinia Venus,-18.0%,-4.8%,-8.2%,-1.8%,-3.3%,-5.3%,6.3%,-8.7%
Vaccinia mCherry,-21.8%,nt,-7.8%,-11.3%,nt,-14.0%,i,-6.8%

[9] Nc1[nH]c(=O)[nH]c(=O)c1N=Cc1ccccc1
[10] Cc1nc2ccn(Cc3cccnc3)c(=O)c2cc1C(=O)N1CCN(c2ccccc2)CC1
[11] CC1=CC2=C(OC1N(C)C)c1cccc3cccc(c13)C2=O (centres undefined)
[12] CC1CN(C(=O)c2cc(S(=O)(=O)N3CCCCC3)ccc2Cl)CC(C)O1 (centres undefined)
[13] CCOC(=O)c1ccc(CN(Cc2ccc(F)cc2)S(=O)(=O)c2ccc(F)c(C(=O)Nc3ccc(Cl)cc3F)c2)cc1
[14] O=C(Nc1ccc(Oc2ncnc3cc(Cl)ccc23)nc1)Nc1cccc(C(F)(F)F)c1
[15] CCOC(=O)CSc1nc2ccc(C)cc2[nH]1
[16] Cc1ccc(OCCOCCN(C)C)c(Cl)c1

screen / no.,9,10,11,12,13,14,15,16
Vaccinia Venus,12.6%,-4.1%,-8.4%,-17.2%,-14.1%,-5.6%[7.34 µM],-6.8%,-19.0%
Vaccinia mCherry,-10.3%,0.1%,-5.0%,-13.2%,-11.2%,8.6%[7.34 µM],nt,i

[17] Cc1ccc(Cn2c(=O)c3ccccc3n3c(CCC(=O)NCCN4CCOCC4)nnc23)cc1
[18] COC(=O)c1c(NC(=O)Cc2ccc(OC)c(S(=O)(=O)N3CCOCC3)c2)sc(C)c1C
[19] O=C1C2C3C=CC(C2C(=O)N1C1CCCCC1)C1C2C(=O)N(C4CCCCC4)C(=O)C2C31 (centres undefined)
[20] COc1ccc(C2(OC)Oc3cc(OC)ccc3C(=O)C2(O)OC)cc1 (centres undefined)
[21] CCOC(=O)CN(Cc1ccccc1)C(C(=O)NC1CCCCC1)c1ccc(C)cc1 (centres undefined)
[22] NS(=O)(=O)c1ccc(CCNC(=O)c2cnccn2)cc1
[23] Nc1nnc(SCC(=O)c2ccccc2)s1
[24] Cc1c(NC(=O)C(C)OC(=O)c2cc(-c3cccc4ccccc34)nc3ccccc23)c(=O)n(-c2ccccc2)n1C (centres undefined)

screen / no.,17,18,19,20,21,22,23,24
Vaccinia Venus,-10.0%,-23.1%,-7.9%,?,-12.4%,-12.9%,-4.8%,-20.6%
Vaccinia mCherry,i,-25.5%,-9.9%,?,-10.8%,i,-18.3%[1.46 µM],-5.4%

[25] CC(C)(C)c1ccc(OCc2nnc(SCC(N)=O)n2N)cc1
[26] O=S1(=O)C[C@H](N2CCN(CC3CC3)CC2)[C@@H](COCc2ccccc2)N1
[27] Cc1cc(SCC(=O)c2cccs2)nc2ccccc12
[28] CC12CCC(O)CC1=CCC1C2CCC2(C)c3[nH]ncc3CC12 (centres undefined)
[29] CCOC(=O)c1cccc(N2C(N)=NC(N)=NC2(C)C)c1
[30] O=C1NC(=S)N/C1=C/c1cccc([N+](=O)[O-])c1
[31] Cc1c(Cl)cccc1NC(=S)NC(=O)c1cncc(Br)c1
[32] Cc1cc(NC(=O)CCC(=O)N(c2ccccc2C)C(C(=O)NC2CCCC2)c2ccccc2)no1 (centres undefined)

screen / no.,25,26,27,28,29,30,31,32
Vaccinia Venus,3.9%,-0.8%,?,-25.2%,-4.7%,-3.3%,-10.5%,-21.9%
Vaccinia mCherry,3.1%,-1.3%,?,?,nt,-2.1%,i,-11.6%

[33] COc1ccccc1C(=O)COC(=O)COc1ccc(C#N)cc1
[34] Oc1ccc(Cl)c(CN2CCN(c3ncc(Cc4ccccc4)cn3)CC2)c1
[35] O=C1CC(N2CCN(c3cccc(C(F)(F)F)c3)CC2)C(=O)N1c1ccccc1F (centres undefined)
[36] S=C(Nc1ccc2nccnc2c1)N1CCOCC1
[37] COc1ccc(CCN(C)Cc2ccc(OCc3ccccc3)c(OC)c2)cc1OC
[38] Cn1c(NC(=O)C[n+]2cc(-c3ccc(Cl)cc3)n3c2CCC3)cc(=O)n(C)c1=O
[39] CCOC(=O)N1CCN(Cc2nc3cc(NC(=O)C(C)C)ccc3n2CC)CC1
[40] O=[N+]([O-])c1ccc(Cl)c(S(=O)(=O)Nc2cccc(S(=O)(=O)NC3=NCCC3)c2)c1

screen / no.,33,34,35,36,37,38,39,40
Vaccinia Venus,-9.8%,-12.7%,4.2%,-4.8%,-18.1%,-21.6%,-17.3%,22.1%
Vaccinia mCherry,i,i,nt,i,i,i,-18.0%,i

[41] COc1ccc(/C=C/C(=O)NC(=S)Nc2ccc(S(=O)(=O)N=C(N)N)cc2)cc1OC
[42] CNc1oc(Cc2ccccc2)nc1S(=O)(=O)c1ccccc1
[43] Cn1nc(C(F)(F)F)c(-c2cccc(C(F)(F)F)c2)c1NC(=O)Nc1ccc(F)cc1
[44] COc1ccc(N2CCN(C(=O)CN(C)S(=O)(=O)c3cnc[nH]3)CC2)cc1
[45] COc1ccc(C(=O)/C=C/c2ccc(OC3CSC3)cc2)cc1
[46] C=CCOc1c(Br)cc(/C=N/NC(=O)Cc2ccc(C(F)(F)F)cc2[N+](=O)[O-])cc1OC
[47] CC(C)c1ccc(NC(=O)CSC2=Nc3ccccc3C3=NC(CCC(=O)NCc4ccc(F)cc4)C(=O)N23)cc1 (centres undefined)
[48] COc1ccc(S(=O)(=O)N2CCOCC2)cc1NC(=O)CSc1nnnn1C1CC1

screen / no.,41,42,43,44,45,46,47,48
Vaccinia Venus,-3.4%,1.7%,-9.4%,-7.6%,-11.2%,-7.7%,-16.4%,-13.2%
Vaccinia mCherry,-3.1%,-4.4%,i,-12.8%,i,-8.3%,i,-20.5%

[49] COc1ccccc1N1C(=NC(=O)C(C)Oc2ccccc2)SC2CS(=O)(=O)CC21 (centres undefined)
[50] COc1ccc(OCCC(=O)OCC(=O)Nc2cccc(S(=O)(=O)N3CCCCC3)c2)cc1
[51] S=C(NCc1cccs1)Nc1ccccc1Cl
[52] Cc1nc(=O)c(-c2ccccc2)c(C)n1-c1ccccc1O
[53] C=C1CCC(OC(C)=O)/C(C)=C/CC2[C@H]1CC2(C)C (some centres undefined)
[54] Cc1cccc(-c2cc3nc(C)cc(C)n3n2)c1
[55] Cc1cccc(OCC(=O)Nc2c(C(=O)Nc3ccc(F)cc3)oc3ccccc23)c1
[56] CN1/C(=C\C(=O)CSc2ncn[nH]2)C(C)(C)c2ccccc21

screen / no.,49,50,51,52,53,54,55,56
Vaccinia Venus,-10.2%,-12.5%,-18.1%,-17.7%,-11.7%,-12.8%,-10.6%,-10.3%
Vaccinia mCherry,-24.1%,-15.3%,-25.9%,nt,-8.8%,-16.0%,-7.8%,-5.3%

[57] CCCCCC(O)CCc1n[nH]c(=S)n1-c1ccccc1 (centres undefined)
[58] Cc1ccc(NC(=O)c2ccc(Br)cc2)c(C(=O)c2ccccc2)c1
[59] COc1ccc(CCn2c(=N)c(S(=O)(=O)c3ccc(Cl)cc3)cc3c(=O)n4ccccc4nc32)cc1
[60] CNS(=O)(=O)c1cn(CC(=O)NCc2ccc(OC)cc2)cc1S(=O)(=O)NC
[61] CC(C)C[C@@H](CN1CCC[C@H]1CN1C(=O)C(=O)NC[C@@H]1Cc1ccccc1)N1C[C@H](Cc2ccccc2)N(CC2CCCCC2)C(=O)C1=O
[62] COc1ccc(Cl)cc1-c1cc(C(=O)NCc2ccco2)[nH]n1
[63] Nc1nc2n(n1)C(c1ccco1)CC(c1ccc(Cl)cc1Cl)N2 (centres undefined)
[64] CCCS(=O)(=O)N1CCN(S(=O)(=O)c2ccc(F)cc2)CC1

screen / no.,57,58,59,60,61,62,63,64
Vaccinia Venus,-5.1%,-8.9%,-18.9%,-1.7%,?,-30.0%,-18.8%,-0.7%
Vaccinia mCherry,-13.4%,-13.8%,-4.9%,i,?,-25.2%,?,-7.7%

[65] COc1ccc(N(CCC(=O)O)S(=O)(=O)c2ccc(C)c(C)c2)cc1
[66] COc1ccccc1C=NC(CO)C(O)c1ccc([N+](=O)[O-])cc1 (centres undefined)
[67] CCN1C[C@]2(COC)CC[C@H](O)[C@]34C1[C@](O)([C@@H](OC)[C@H]23)[C@@]1(O)C[C@H](OC)[C@H]2C[C@@H]4[C@@H]1[C@H]2OC
[68] COC(=O)c1cccc(NC(=S)NCc2ccc(Cl)cc2)c1
[69] COC(=O)[C@@]12CCCN1[C@H](c1ccc(-c3cccc(Cl)c3)cc1)[C@H]1C(=O)N(C)C(=O)[C@H]12
[70] c1ccc(CSc2nnc(-c3cccnc3)o2)cc1
[71] C=C(C)c1cccc(C(C)(C)NC(=O)Nc2ccc3[nH]c(=O)[nH]c3c2)c1
[72] Cc1ccc(-c2nnc(-c3ccccc3)c(-c3ccccc3)n2)cc1

screen / no.,65,66,67,68,69,70,71,72
Vaccinia Venus,-4.8%,-0.7%,-16.9%,-29.0%,-24.8%,-19.2%,-22.8%,-6.6%
Vaccinia mCherry,-8.3%,nt,-3.6%,-12.9%[1.46 µM],-13.3%,nt,-4.2%[1.46 µM],i

[73] CC(C)Cn1c(SCC(=O)Nc2ccc(Cl)cc2F)nc(O)cc1=O
[74] CCCNC(=O)Nc1ccc2c(c1)OC[C@H](C)N(C(=O)C1CCCCC1)C[C@@H](C)[C@H](OC)CN(C)C2=O
[75] CCCCCCc1nc2ccccc2c(=O)n1N
[76] N=C1S/C(=C\c2cccc3ccccc23)C(=O)N1c1ccc(F)cc1
[77] CC(C)(C)C1CCc2c(sc(NC(=O)c3cccs3)c2C(=O)N2CCCCC2)C1 (centres undefined)
[78] N#C/C(=C\c1ccc(OC(=O)c2cccs2)cc1)c1nc2ccccc2[nH]1
[79] Cc1ccc(NC(=O)Cn2c(=O)n(Cc3nc(-c4ccccc4)no3)c(=O)c3cc4c(cc32)OCO4)cc1C
[80] CCCCCC(=O)Nc1cccc(C2=NOC3(C2)C[C@@H](C(N)=O)N(C(=O)C2(C)CC2)C3)c1 (some centres undefined)

screen / no.,73,74,75,76,77,78,79,80
Vaccinia Venus,-1.5%,-4.6%,?,-12.9%,-20.8%,-2.8%,5.1%,-13.5%
Vaccinia mCherry,-7.9%,6.8%,nt,-19.1%,nt,-5.2%,-5.2%,i

# Reprinted, nos. 76–80
[76] N=C1S/C(=C\c2cccc3ccccc23)C(=O)N1c1ccc(F)cc1
[77] CC(C)(C)C1CCc2c(sc(NC(=O)c3cccs3)c2C(=O)N2CCCCC2)C1 (centres undefined)
[78] N#C/C(=C\c1ccc(OC(=O)c2cccs2)cc1)c1nc2ccccc2[nH]1
[79] Cc1ccc(NC(=O)Cn2c(=O)n(Cc3nc(-c4ccccc4)no3)c(=O)c3cc4c(cc32)OCO4)cc1C
[80] CCCCCC(=O)Nc1cccc(C2=NOC3(C2)C[C@@H](C(N)=O)N(C(=O)C2(C)CC2)C3)c1 (some centres undefined)

screen / no.,76,77,78,79,80
Vaccinia Venus,-12.9%,-20.8%,-2.8%,5.1%,-13.5%
Vaccinia mCherry,-19.1%,nt,-5.2%,-5.2%,i

# Reformatted: entries from further up
73: CC(C)Cn1c(SCC(=O)Nc2ccc(Cl)cc2F)nc(O)cc1=O
  Vaccinia Venus: -1.5%
  Vaccinia mCherry: -7.9%
74: CCCNC(=O)Nc1ccc2c(c1)OC[C@H](C)N(C(=O)C1CCCCC1)C[C@@H](C)[C@H](OC)CN(C)C2=O
  Vaccinia Venus: -4.6%
  Vaccinia mCherry: 6.8%
75: CCCCCCc1nc2ccccc2c(=O)n1N
  Vaccinia Venus: ?
  Vaccinia mCherry: nt

# Going on with the list:
[81] COc1ccc(C(=O)Nc2cc(Cl)ccc2N2CCOCC2)cc1S(=O)(=O)N1CCOCC1
[82] CSc1ccc(NC(=O)Nc2ccccc2C(N)=O)cc1
[83] NP(=O)(Oc1ccccc1)c1ccccc1 (centres undefined)
[84] O=C(OCc1cc(=O)n2nc(-c3cccs3)sc2n1)c1cccc(F)c1
[85] Cc1ccc(C(=O)Nc2ccc(Oc3cccc(C(F)(F)F)c3)nc2)cc1
[86] COc1ccc(C(=O)Nc2ccc(N3CCN(c4ccccc4)CC3)c(C(=O)O)c2)cc1

screen / no.,81,82,83,84,85,86
Vaccinia Venus,-8.1%,-21.8%,-0.8%,-14.5%,?,-4.3%
Vaccinia mCherry,-15.9%,-8.6%,i,-11.3%,?,-2.8%
